ID4 binder = binds human ID4 protein on microarray; small molecule microarray, Flag-ID4 binding, fluorescence F/B; calls only; hit rate 1.2% among 31,000;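 active = spot signal over background at p below 0.07 in all four prints; compounds were printed on slides so no solution concentration is given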;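 note: a binder raises fluorescence above local background on the spot; about 2 pmol printed per array spot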
Target sequence (P47928 whole entry, looked up): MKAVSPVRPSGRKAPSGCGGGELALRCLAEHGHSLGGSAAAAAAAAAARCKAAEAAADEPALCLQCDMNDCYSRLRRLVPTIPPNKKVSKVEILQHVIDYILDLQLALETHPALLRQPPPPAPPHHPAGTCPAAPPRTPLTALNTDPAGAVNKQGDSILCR
STAT3 binder = STAT3 (human) binding. P40763. Small molecule microarray, His-STAT3 binding, anti-His fluorescence. calls only. hit rate 0.2% among 17,000. AID 624138;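 active = compounds whose four printed spots each show fluorescence over background unusually high for their array block, chance value under 7%; compounds were printed on slides so no solution concentration is given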;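 note: about 2 pmol printed per array spot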
Target sequence (P40763 whole entry, looked up): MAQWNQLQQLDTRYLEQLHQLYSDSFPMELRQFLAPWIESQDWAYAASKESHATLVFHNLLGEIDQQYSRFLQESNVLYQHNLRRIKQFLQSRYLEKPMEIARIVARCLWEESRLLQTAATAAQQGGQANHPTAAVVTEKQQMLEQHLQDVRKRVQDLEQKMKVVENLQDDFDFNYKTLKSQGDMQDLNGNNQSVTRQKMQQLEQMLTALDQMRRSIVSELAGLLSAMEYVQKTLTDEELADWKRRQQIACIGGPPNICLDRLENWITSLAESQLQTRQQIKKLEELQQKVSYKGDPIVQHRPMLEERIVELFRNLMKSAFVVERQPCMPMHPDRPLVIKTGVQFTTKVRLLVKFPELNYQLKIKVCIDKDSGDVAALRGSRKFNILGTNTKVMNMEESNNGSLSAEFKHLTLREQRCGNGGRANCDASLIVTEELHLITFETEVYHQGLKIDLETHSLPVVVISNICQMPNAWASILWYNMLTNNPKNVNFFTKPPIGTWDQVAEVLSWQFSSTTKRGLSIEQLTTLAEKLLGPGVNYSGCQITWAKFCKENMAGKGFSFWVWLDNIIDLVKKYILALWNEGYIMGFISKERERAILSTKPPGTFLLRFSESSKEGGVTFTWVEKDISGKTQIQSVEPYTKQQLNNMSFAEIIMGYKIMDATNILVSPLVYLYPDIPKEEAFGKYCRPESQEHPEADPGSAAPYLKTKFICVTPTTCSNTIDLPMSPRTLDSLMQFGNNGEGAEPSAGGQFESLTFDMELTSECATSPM
mut p53 SMM = binders of human mutant p53. small molecule microarray binding, anti-GST fluorescence. calls only. hit rate 0.4% among 17,000. AID 624136;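 active = compounds whose four printed spots each glow above background more than chance allows, each with a p-value under 7%; compounds were printed on slides so no solution concentration is given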;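 note: about 2 pmol printed per array spot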
Myc binder = binds human c-Myc on microarray; P01106; small molecule microarray, His-c-Myc binding, anti-His fluorescence; calls only; hit rate 1.5% among 17,000;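 active = spot fluorescence over background with P-value below 7% in all four replicate spots, showing protein binding; compounds were printed on slides so no solution concentration is given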;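 note: score is binary with 100 for all four spots passing and 0 otherwise; about 2 pmol printed per array spot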
Calls only; i = inactive; . = no result given; + = active, no number. This is a subset; the hit share may differ from the screen's.

| smiles | Myc binder | ID4 binder | STAT3 binder | mut p53 SMM |
| --- | --- | --- | --- | --- |
| C[C@H]1CN([C@@H](C)CO)C(=O)c2cc(NS(=O)(=O)c3cccs3)ccc2O[C@H]1CN(C)Cc1ccc(Oc2ccccc2)cc1 | i | . | i | i |
| CC(C)(OC(=O)c1ccccc1)[C@@H]1Cc2cc3ccc(=O)oc3cc2O1 | i | i | i | i |
| Cc1noc(C)c1NC(=O)Nc1ccc2c(c1)CC(=O)N([C@@H](C)CO)C[C@H](C)[C@H](CN(C)S(=O)(=O)c1ccccc1)O2 | i | i | i | i |
| Cc1cc2nc(-c3ccc(NC(=O)COc4ccccc4[N+](=O)[O-])cc3)oc2cc1C | i | i | i | i |
| COc1ccc(NC(=O)c2ccco2)cc1NC(=S)NC(=O)c1cc2ccccc2o1 | i | i | i | i |
| CC(C)(CSc1nnc(Nc2ccccc2)s1)NS(=O)(=O)c1ccc(Cl)cc1 | i | i | i | i |
| C[C@@H]1CCCCO[C@@H](CN(C)S(=O)(=O)c2cccs2)[C@H](C)CN([C@H](C)CO)C(=O)c2cc(N(C)C)ccc2O1 | i | i | i | i |
| CC(Nc1nc2ccccc2n1C)c1cc(Cl)ccc1O (stereo unspecified) | i | i | i | i |
| COc1ccc(S(=O)(=O)N(C)C[C@H]2Oc3ccc(NC(=O)Nc4cccc5ccccc45)cc3CC(=O)N([C@H](C)CO)C[C@H]2C)cc1 | i | i | i | i |
| CNC[C@@H]1Oc2ccc(NC(=O)Cc3ccccc3)cc2CC(=O)N([C@H](C)CO)C[C@H]1C | i | i | i | i |
| C[C@H]1CN([C@@H](C)CO)C(=O)c2cccc(NC(=O)c3cnccn3)c2O[C@H]1CN(C)S(=O)(=O)c1cccs1 | i | . | i | i |
| Cc1noc(C)c1S(=O)(=O)Nc1ccc2c(c1)C(=O)N([C@H](C)CO)C[C@H](C)[C@@H](CN(C)C(=O)Nc1ccccc1)O2 | i | i | i | i |
| Cc1ccc(S(=O)(=O)Nc2ccc3c(c2)C(=O)N([C@@H](C)CO)C[C@@H](C)[C@@H](CN(C)S(=O)(=O)c2ccc(Cl)cc2)OCCCC[C@H](C)O3)cc1 | i | . | i | i |
| Cc1ncsc1CCSc1n[nH]c(=O)n1-c1ccccc1 | i | i | i | i |
| COC(=O)[C@@]1(Cc2ccccc2)N=C(c2ccc(OCCCO)cc2)O[C@H]1c1ccccc1CN=[N+]=[N-] | i | i | i | i |
| COc1ccc(S(=O)(=O)Nc2cccc3c2O[C@@H](CN(C)S(=O)(=O)c2cn(C)cn2)[C@@H](C)CN([C@@H](C)CO)C3=O)cc1 | i | i | i | i |
| OCCCNc1nc(-c2ccccc2Cl)c2cc(Br)ccc2n1 | i | i | i | i |
| C[C@@H]1CN([C@@H](C)CO)C(=O)c2cccc(NC(=O)c3ccc(-c4nccs4)cc3)c2O[C@@H]1CN(C)S(=O)(=O)c1cccs1 | i | i | i | i |
| C[C@H]1CN([C@@H](C)CO)C(=O)c2cc(NC(=O)NC3CCCCC3)ccc2O[C@H]1CN(C)S(=O)(=O)c1cn(C)cn1 | i | i | i | i |
| CCNC(=O)CCc1nc(-c2ccc(OC)cc2)no1 | i | i | i | i |
| C=CC(C)(O)CC/C=C(\C)CCC(O)C(C)(C)O (stereo unspecified) | i | i | i | i |
| COc1ccccc1NC(=O)N(C)C[C@@H]1OCc2cnnn2CCCC(=O)N([C@@H](C)CO)C[C@@H]1C | i | i | i | i |
| Cc1nc2ccccc2n1CC(O)COc1ccc(C(=O)O)cc1 (stereo unspecified) | i | i | i | i |
| C[C@@H]1CN([C@H](C)CO)C(=O)c2cccc(N(C)C)c2O[C@@H]1CN(C)S(=O)(=O)c1ccccc1 | i | . | i | i |
| C[C@H]1CCCCO[C@@H](CN(C)C(=O)c2ccncc2)[C@@H](C)CN([C@@H](C)CO)C(=O)c2cc(NC(=O)CCC(F)(F)F)ccc2O1 | i | i | i | i |
| C[C@H]1CCCCO[C@H](CN(C)C)[C@@H](C)CN([C@@H](C)CO)C(=O)c2cc(NC(=O)Nc3ccc(F)cc3)ccc2O1 | i | i | i | i |
| Cc1ccc(-c2cc(C(F)(F)F)n3nc(C(=O)NCCN4CCOCC4)c(Cl)c3n2)cc1 | i | i | i | i |
| COc1ccc(C2CC(=O)c3c(O)cc(O)cc3O2)cc1O (stereo unspecified) | i | i | i | i |
| Cc1noc(C)c1NC(=O)N(C)C[C@H]1OCc2cn(nn2)CCCC(=O)N([C@H](C)CO)C[C@@H]1C | i | i | i | i |
| CC(=O)N1CCc2nc(SCC(=O)Nc3cccc(C#N)c3)c(C#N)c(C(F)(F)F)c2C1 | i | i | i | i |
| C[C@@H]1CN([C@H](C)CO)C(=O)CCCn2cc(nn2)CO[C@@H]1CN(C)Cc1ccc(C(F)(F)F)cc1 | i | i | i | i |
| NC(=O)c1ccc2[nH]ccc2c1 | i | i | i | i |
| C[C@H]1CCCCO[C@H](CN(C)C(=O)CCC(F)(F)F)[C@@H](C)CN([C@@H](C)CO)C(=O)c2cc(NC(=O)Cc3ccccc3)ccc2O1 | i | i | i | i |
| C[C@H](CO)N1C[C@H](C)[C@@H](CN(C)S(=O)(=O)c2ccc(F)cc2)Oc2c(NC(=O)Nc3cccc4ccccc34)cccc2C1=O | i | . | i | i |
| C[C@@H]1CN([C@H](C)CO)C(=O)c2cc(NS(=O)(=O)c3cccs3)ccc2O[C@@H]1CN(C)Cc1ccccc1 | i | . | i | i |
| COc1ccc(C(=O)O[C@H]2CC(C)=CC[C@]3(C)[C@@H]2[C@](O)(C(C)C)C[C@@H]3O)cc1 | i | i | i | i |
| Cc1ccc(F)cc1S(=O)(=O)N[C@@H]1CCN(Cc2ccc(OC(C)C)cc2)C1 | i | i | i | i |
| COc1ccc([Si](C)(C)[C@@H]2[C@@H](CCn3cc([C@H](O)c4ccccc4)nn3)O[C@]3(C(=O)N(Cc4ccc(N5CCC5=O)cc4)c4ccccc43)[C@H]2C)cc1 | i | i | i | i |
| C[C@@H]1CN([C@@H](C)CO)C(=O)c2cc(NS(=O)(=O)c3ccccc3)ccc2O[C@@H]1CN(C)C | i | i | i | i |
| Cc1ccc(NC(=O)CSc2ncn[nH]2)c(C)c1 | i | i | i | i |
| Cc1noc(C)c1S(=O)(=O)N(C)C[C@@H]1Oc2c(NS(=O)(=O)c3cccs3)cccc2C(=O)N([C@H](C)CO)C[C@@H]1C | i | i | i | i |
| COc1ccc(NC(=O)Nc2ccc3c(c2)CC(=O)N([C@@H](C)CO)C[C@H](C)[C@@H](CN(C)Cc2ccc(Oc4ccccc4)cc2)O3)cc1 | i | . | i | + |
| COC(=O)c1ccccc1NC(=O)c1c(NC(=O)CN2CCCCCC2)sc2c1CCC2 | i | i | i | i |
| Cc1ccc(S(=O)(=O)N(C)C[C@H]2Oc3c(NC(=O)C4CC4)cccc3C(=O)N([C@@H](C)CO)C[C@H]2C)cc1 | i | . | i | i |
| C[C@@H]1CN([C@H](C)CO)C(=O)CCCn2cc(nn2)CO[C@H]1CN(C)S(=O)(=O)c1cccs1 | i | i | i | i |
| C[C@H]1CN([C@@H](C)CO)C(=O)c2cccc(NC(=O)Nc3cccc4ccccc34)c2O[C@H]1CN(C)CC1CC1 | i | i | i | i |
| COc1ccc(CN(C)C[C@@H]2Oc3ccc(NC(=O)Nc4ccc5c(c4)OCO5)cc3C(=O)N([C@@H](C)CO)C[C@H]2C)cc1 | i | i | i | i |
| CC(C)NC(=O)N(C)C[C@@H]1OCCCC[C@@H](C)Oc2ccc(NC(=O)c3ccncc3)cc2C(=O)N([C@@H](C)CO)C[C@H]1C | i | i | i | i |
| C[C@H]1CN([C@@H](C)CO)C(=O)c2cccc(NC(=O)c3ccc(-c4nccs4)cc3)c2O[C@@H]1CN(C)C(=O)NC1CCCCC1 | i | i | i | i |
| Cc1ccc(NC(=O)CSc2nnc(-c3ccncc3)o2)cc1C | i | i | i | i |

The listing continues:
| smiles | Myc binder | ID4 binder | STAT3 binder | mut p53 SMM |
| --- | --- | --- | --- | --- |
| COC(=O)c1c(NC(=O)Cc2ccccc2[N+](=O)[O-])sc2c1CCCC2 | i | i | i | i |
| C[C@@H]1CN([C@@H](C)CO)C(=O)c2cccc(NS(=O)(=O)c3ccc(Cl)cc3)c2O[C@@H]1CN(C)C(=O)Nc1ccc(C(F)(F)F)cc1 | i | i | i | i |
| O=C(NCc1ccccc1)C1=C[C@H](C2CCCCC2)C[C@H](OCc2ccc(CO)cc2)O1 | i | . | i | i |
| O=C(O)CNc1ncnc2oc(-c3ccccc3)c(-c3ccccc3)c12 | i | i | i | i |
| O=c1cc(-c2ccccc2)oc2cc(O)ccc12 | i | i | i | i |
| C=C1C2(C)OC(=O)C34OC2C2=C(CO)C5(CCC2(C)C13C(=O)OC4C)C(O)CC(=O)OC5(C)C (stereo unspecified) | i | i | i | i |
| C[C@H](CO)N1C[C@H](C)[C@H](CN(C)C(=O)Nc2ccccc2)Oc2ccc(NS(=O)(=O)c3ccccc3)cc2CC1=O | i | i | i | i |
| O=C(COc1ccc(C(=O)Nc2ccccc2Cl)cc1)Nc1ccc(Oc2ccccc2)cc1 | i | i | i | i |
| COc1ccc(S(=O)(=O)N(C)C[C@@H]2Oc3c(NS(=O)(=O)c4ccccc4)cccc3C(=O)N([C@H](C)CO)C[C@@H]2C)cc1 | i | i | i | i |
| C[C@@H]1O[C@H]2Oc3c(-c4ccc(O)c(O)c4)oc4cc(O)c(c(O)c4c3=O)-c3cc(ccc3O)/C=C\C(=O)OC[C@H]3O[C@@H](O[C@H]([C@H]1O)[C@H]2O)[C@H](O)[C@@H](O)[C@@H]3O | i | . | i | i |
| C[C@@H]1O[C@@H](O[C@H]2[C@@H]3C=CO[C@@H](O[C@@H]4O[C@H](CO)[C@@H](O)[C@H](O)[C@H]4O)[C@@H]3[C@@]3(CO)O[C@@H]23)[C@H](OC(=O)/C=C/c2ccc(O)c(O)c2)[C@H](O)[C@H]1O | i | . | i | i |
| COc1cc(NC(=O)c2cnn3c(C(F)(F)F)cc(-c4ccco4)nc23)c(OC)cc1Cl | i | i | i | i |
| C[C@H](CO)N1C[C@H](C)[C@H](CN(C)Cc2ccc(C(=O)O)cc2)Oc2ccc(NC(=O)Nc3ccc4c(c3)OCO4)cc2C1=O | i | i | i | i |
| O=c1c(O[C@@H]2O[C@H](CO)[C@@H](O)[C@H](O)[C@H]2O)c(-c2ccc(O)c(O)c2)oc2cc(O)cc(O)c12 | i | i | i | i |
| COC(=O)c1ccccc1NC(=O)Cc1coc2cc(C)cc(C)c12 | i | i | i | i |
| CC(C)NC(=O)N(C)C[C@H]1Oc2ccc(NC(=O)C3CC3)cc2C(=O)N([C@H](C)CO)C[C@H]1C | i | i | i | i |
| COC(=O)c1cc(OC)c(OC)cc1NC(=O)COc1ccc(OC)cc1 | i | i | i | i |
| C[C@H](CO)N1C[C@H](C)[C@@H](CN(C)C)OCCCC[C@H](C)Oc2ccc(NS(=O)(=O)c3cccs3)cc2C1=O | i | i | i | i |
| COc1ccc(NC(=O)Nc2ccc3c(c2)C(=O)N([C@@H](C)CO)C[C@H](C)[C@H](CN(C)Cc2ccc(C(=O)O)cc2)O3)cc1 | i | i | i | i |
| C[C@@H]1CN([C@H](C)CO)C(=O)Cc2cc(NS(=O)(=O)c3ccccc3)ccc2O[C@H]1CN(C)C(=O)Nc1cccc2ccccc12 | i | i | i | i |
| C[C@@H]1CN([C@@H](C)CO)C(=O)c2cc(NC(=O)Nc3ccc4c(c3)OCO4)ccc2O[C@@H]1CN(C)C(=O)Nc1ccc(F)cc1 | i | i | i | i |
| C[C@@H]1CCCCO[C@@H](CN(C)C)[C@H](C)CN([C@H](C)CO)C(=O)c2cc(NC(=O)c3ccccc3)ccc2O1 | i | i | i | i |
| C[C@@H]1CN([C@@H](C)CO)C(=O)Cc2cc(NC(=O)Nc3ccccc3)ccc2O[C@H]1CN(C)C(=O)Nc1ccccc1 | i | i | i | i |
| CCOC(=O)CSc1n[nH]c(-c2ccc(Cl)cc2)n1 | i | i | i | i |
| C[C@H]1CN([C@@H](C)CO)C(=O)Cc2cc(NC(=O)C3CC3)ccc2O[C@H]1CN(C)C(=O)Nc1ccccc1 | i | i | i | i |
| C[C@H]1CN([C@@H](C)CO)C(=O)c2cc(N(C)C)ccc2O[C@@H]1CN(C)S(=O)(=O)c1cccs1 | i | i | i | i |
| C[C@H](CO)N1C[C@H](C)[C@H](CN(C)C(=O)Nc2ccccc2)Oc2ccc(NS(=O)(=O)c3ccccc3)cc2C1=O | i | . | i | i |
| CO[C@H]1O[C@H](CO)[C@@H](OC(=O)Nc2ccc3c(c2)OCO3)[C@@H]2OC(=O)[C@@H](Cc3ccccc3)C/C=C/C[C@H](Cc3ccccc3)C(=O)O[C@@H]12 | i | i | i | i |

Three entries already listed, arranged by heavy-atom count, falling.
| smiles | Myc binder | ID4 binder | STAT3 binder | mut p53 SMM |
| --- | --- | --- | --- | --- |
| C[C@@H]1CN([C@@H](C)CO)C(=O)c2cccc(NS(=O)(=O)c3ccc(Cl)cc3)c2O[C@@H]1CN(C)C(=O)Nc1ccc(C(F)(F)F)cc1 | i | i | i | i |
| C[C@@H]1CN([C@@H](C)CO)C(=O)Cc2cc(NC(=O)Nc3ccccc3)ccc2O[C@H]1CN(C)C(=O)Nc1ccccc1 | i | i | i | i |
| CC(Nc1nc2ccccc2n1C)c1cc(Cl)ccc1O (stereo unspecified) | i | i | i | i |

Some entries already given with just ID4 binder and STAT3 binder:
SMILES | ID4 binder | STAT3 binder
O=c1cc(-c2ccccc2)oc2cc(O)ccc12 | i | i
CCOC(=O)CSc1n[nH]c(-c2ccc(Cl)cc2)n1 | i | i
COc1ccc(NC(=O)Nc2ccc3c(c2)C(=O)N([C@@H](C)CO)C[C@H](C)[C@H](CN(C)Cc2ccc(C(=O)O)cc2)O3)cc1 | i | i
